# KCNQ2 inh = KCNQ2 channel blockers in CHO-K1 cells – cell-based, FluxOR thallium flux, B-score, primary screen (AID 2156). B-score at 10 µM. actives 1.1% (n = 310,000). 20 min; stronger effect = lower value; only compounds with negative scores are shown here; some inactives read as strong as hits;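 active = fluorescence ratio B-score at most minus 3 library SDs, with starting brightness B-score within 2 library SDs, cut at about -5.5 in these data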
# Target sequence (O88943 whole entry, looked up): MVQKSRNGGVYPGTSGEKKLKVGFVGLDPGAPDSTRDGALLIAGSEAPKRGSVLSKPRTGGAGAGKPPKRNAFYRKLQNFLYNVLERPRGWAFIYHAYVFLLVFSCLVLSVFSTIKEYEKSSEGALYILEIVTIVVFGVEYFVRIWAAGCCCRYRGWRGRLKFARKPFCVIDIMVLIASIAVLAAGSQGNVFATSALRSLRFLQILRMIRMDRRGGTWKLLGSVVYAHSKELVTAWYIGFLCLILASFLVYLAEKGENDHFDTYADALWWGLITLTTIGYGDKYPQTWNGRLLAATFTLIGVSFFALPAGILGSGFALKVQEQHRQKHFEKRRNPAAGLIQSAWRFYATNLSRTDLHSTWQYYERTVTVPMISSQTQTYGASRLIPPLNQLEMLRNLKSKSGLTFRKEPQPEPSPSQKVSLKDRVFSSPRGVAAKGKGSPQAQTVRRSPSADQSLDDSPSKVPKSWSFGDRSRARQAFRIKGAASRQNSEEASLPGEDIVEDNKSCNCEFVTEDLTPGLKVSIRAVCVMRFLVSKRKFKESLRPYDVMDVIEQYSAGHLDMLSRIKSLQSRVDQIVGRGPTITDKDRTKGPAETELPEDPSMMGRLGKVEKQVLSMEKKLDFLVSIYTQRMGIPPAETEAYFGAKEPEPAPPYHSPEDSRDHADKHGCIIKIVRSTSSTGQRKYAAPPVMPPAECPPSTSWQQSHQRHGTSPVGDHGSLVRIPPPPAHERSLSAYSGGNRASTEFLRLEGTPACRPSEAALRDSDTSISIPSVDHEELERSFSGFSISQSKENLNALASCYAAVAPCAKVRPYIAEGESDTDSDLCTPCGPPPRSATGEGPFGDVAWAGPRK
# KCNQ2 inh baseline = also measured in KCNQ2 inh; calls as there; B-score; measured here: initial fluorescence intensity artifact check;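 brightness before thallium and not channel activity; 0 = typical well and far values either way flag optical interference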
# Numbers without * were called inactive; i = inactive. This is a subset. The share of hits here may be higher or lower than overall.
SMILES,KCNQ2 inh,KCNQ2 inh baseline
CC(C)(C)Nc1nc(Cl)nc(NCCN2CCOCC2)n1,i,-0.81
C=CCN=C1SCC(=O)N1S(=O)(=O)c1ccccc1,i,-1
CCCN(Cc1nnc(-c2ccccc2Cl)o1)C(=O)c1cc([N+](=O)[O-])cc([N+](=O)[O-])c1,i,-0.68
COC(=O)c1ccc(NC(=S)N2CCN(Cc3ccc(Cl)cc3)CC2)cc1,i,-0.22
OC(COc1ccccc1)CSc1ncn[nH]1 (stereo not given),i,3.2
Cc1ccc(CN2CCSc3ccc(C(=O)NC4CCN(Cc5ccccc5)CC4)cc32)cc1,i,-0.07
CCCOP(=O)(OCCC)C1(Nc2ccc(C)cc2)CCCCC1,i,1.1
CCCCCCCC1CC(CSC(=N)N)OC1=O (stereo not given),i,0.62
COC(=O)c1c(NC(=O)C2C3CCC(C3)C2C(=O)O)sc2c1CCCCC2 (stereo not given),i,0.03
COc1cc(C2C(C(=O)c3ccc(C)o3)=C(O)C(=O)N2CCN2CCOCC2)ccc1OCCC(C)C (stereo not given),i,0.87
COc1cccc(N2CCN(CC(=O)c3c(C)[nH]c4ccccc34)CC2)c1,i,-0.99
O=[N+]([O-])c1cc(S(=O)(=O)N2CCCC2)ccc1NN=C1CCCCC1,i,-0.07
COC(=O)c1ccccc1OCCCCN1CC(C)OC(C)C1 (stereo not given),i,0.34
COCCn1nnnc1C(c1cccs1)N1CCN(c2cccc(C(F)(F)F)c2)CC1 (stereo not given),i,-0.58
CN1/C(=C/c2cccc[n+]2C)Sc2ccccc21,i,1.7
Cc1cc(C)nc(Sc2c(F)c(F)c(C(F)(F)F)c(F)c2F)n1,i,0.78
C#CCOCCOCCOCCNc1nc(N2CCN(C(=O)[C@H](Cc3cc4ccccc4[nH]3)n3cc([C@@H](N)C(C)CC)nn3)CC2)nc(N2CCN(C(=O)[C@H](CCCCN)n3cc([C@@H](N)CO)nn3)CC2)n1 (stereo not given in full),i,2.1
O=C1COc2ccccc2N1Cc1ccccc1Cl,i,0.19
Nc1ccnn1Cc1ccc(Br)s1,i,-0.16
CCOC(=O)C1CN(S(=O)(=O)c2ccc(C)cc2)CCN1S(=O)(=O)c1ccc(C)cc1 (stereo not given),i,-0.79
OCCOCCn1c(C(CO)Nc2nc(-c3ccccc3Br)cs2)nc2ccccc21 (stereo not given),i,0.15
CCOC(=O)c1nnc(-c2ccccc2)nc1Sc1c(Cl)cccc1Cl,i,0.6
CCCc1nc2ccccc2c(=O)n1CCc1ccccc1,i,0.34
COc1ccc(OC)c(S(=O)(=O)N(C)CC(=O)N2CCOCC2)c1,i,-2.1
COc1ccc(NS(=O)(=O)c2ccc3oc(=O)c4[nH]c(=O)c(=O)n(C)c4c3c2)cc1,i,-0.16
CC(NC(=O)c1ccccc1NC(=O)CN1CCc2ccccc2C1)c1ccccc1 (stereo not given),i,-0.01
COc1ccc(C(=O)CCN2CCN(c3ccccc3F)CC2)cc1,i,-0.1
Cc1nc(SCc2ccc(Cl)c(Cl)c2)n[nH]1,i,1.1
O=CN1CCN(C(=O)c2ccccc2Cl)CC1,i,1.8
COc1ccc(-c2noc3c2-c2nc(-c4c(F)cccc4F)sc2CC3)cc1,i,-0.05
CCOC(=O)C1CCCc2c1[nH]c1c(C(=O)O)cccc21 (stereo not given),i,0.27
CC(C)=CCC12Oc3cc(O)ccc3C1(O)Oc1cc3c(c(O)c1C2=O)C=CC(C)(C)O3 (stereo not given),i,-0.84
Clc1cccc(Nc2nc(-c3ccncc3)nc3ccccc23)c1,i,-0.14
C=CCNc1nc(Nc2ccccc2F)nc(OCC)n1,i,-0.02
CCOC(=O)C1=C(C)N(c2nonc2NC(C)=O)C(N)=C(C#N)C1c1ccccc1F (stereo not given),i,-0.34
S=C(NC1CCCCC1)N1CCOCCOCCN(C(=S)NC2CCCCC2)CCOCC1,i,-2.3
O=C(N=c1nc2ccccn2s1)c1ccccc1,i,-1.3
COCCN(C(=O)COC(=O)CSc1ccccc1)c1c(N)n(Cc2ccccc2)c(=O)[nH]c1=O,i,1.2
C/C(=N/NC(=O)c1cc(-c2ccccc2)nc2c(Cl)cccc12)c1cccnc1,i,-0.01
O=C(Nc1cccc(-c2cccc(Cl)c2)c1)C1CCN(Cc2ccc(CO)o2)CC1,i,-2.1
COc1ccc(/C=C(\NC(=O)c2ccccc2)C(=O)NC2CCS(=O)(=O)C2)cc1 (stereo not given),i,0.15
c1ccc(-c2nnc(CN3CCCc4ccccc43)o2)cc1,i,0.94
Cc1ccc(-n2c(CNc3ccc(F)cc3)nnc2SCC(=O)N2CCCC2)cc1,i,-1.5
CCOC(=O)c1cnc(Nc2nc3ccccc3o2)nc1CSC(=S)N1CCCCC1,i,-0.13
Cc1cc(C)nc(NC(=NCCc2c[nH]c3ccccc23)NC(=O)Nc2ccc(Cl)cc2)n1,i,0.05
CC1CN(C(=S)Nc2cccc(Cl)c2)CC(C)O1 (stereo not given),i,0.37
CC(=O)c1ccc(S(=O)(=O)Nc2ccc(-c3ccc4nncn4n3)cc2)cc1,i,-2.6
COc1cccc(-c2n[nH]c3c2CCC3)c1,i,2.3
C[C@@H]1[C@@H](Sc2ccccc2)CC(=O)O[C@@H]1c1ccc(-c2ccccc2)cc1,i,1.1
Cc1cc(N2CCCC2)nc2ccc(NC(=S)NCCCN3CCC(C)CC3)cc12,i,-0.43
CC1CCCCC1NC(=O)COC(=O)c1ccc(N(C)C)cc1 (stereo not given),i,2.6
COc1cc(OC)c(C(=O)Nc2ccncc2)cc1OC,i,0.79
CC1CCN(C(=O)CCc2ccc(Oc3cc([N+](=O)[O-])cc([N+](=O)[O-])c3)cc2)CC1,i,0.92
NC(=O)c1cnn(Cc2ccc(Cl)cc2)c1N,i,2.9
COc1ccc(S(=O)(=O)N2CCN(Cc3ccc4c(c3)OCO4)CC2)cc1F,i,1.2
O=C(NC1CCCCC1)C(c1cccs1)N(C(=O)c1ccccn1)c1ccccc1 (stereo not given),i,1.8
COc1cc2c(cc1OC)C(C)N(C(=O)C1=NN(c3cccc(C)c3)C(=O)CC1)CC2 (stereo not given),i,-1.6
NC(=O)C1CC=CCC1C(=O)OCC(Cl)=C(Cl)Cl (stereo not given),i,1.2
CN(C)c1ccc(C(=O)Nc2ccc(S(=O)(=O)NC3=NCCCCC3)cc2)cc1,i,-0.51
Cc1ccc(NC(=O)c2cc(S(=O)(=O)N(C)C)ccc2N2CCCC2)cc1F,i,1.5

# The final 4 entries of the section above open the next one.
SMILES,KCNQ2 inh,KCNQ2 inh baseline
COc1cc2c(cc1OC)C(C)N(C(=O)C1=NN(c3cccc(C)c3)C(=O)CC1)CC2 (stereo not given),i,-1.6
NC(=O)C1CC=CCC1C(=O)OCC(Cl)=C(Cl)Cl (stereo not given),i,1.2
CN(C)c1ccc(C(=O)Nc2ccc(S(=O)(=O)NC3=NCCCCC3)cc2)cc1,i,-0.51
Cc1ccc(NC(=O)c2cc(S(=O)(=O)N(C)C)ccc2N2CCCC2)cc1F,i,1.5
CN(C)CCCNC(=S)N1CCC(c2nc3ccccc3[nH]2)CC1,i,0.59
COC(=O)c1ccc(C(=O)Nc2nnc(-c3cccnc3)o2)cc1,i,-0.28
CCOCCCNC(=O)C(c1ccc(C)cc1)N(Cc1cccs1)C(=O)c1ccccc1O (stereo not given),i,0.48
Cc1ccc(-c2nn(-c3ccccc3)cc2C2SCC(=O)N2Cc2ccccc2)o1 (stereo not given),i,-0.12
COc1cc(C(=O)NCCOc2ccccc2C)c(Br)c(OC)c1OC,i,0.02
CN(CCO)S(=O)(=O)c1ccc2c(c1)C(=O)c1cc(S(=O)(=O)N(C)CCO)ccc1-2,i,0.35
CC1(C)CC(=O)C2=C(C1)N(c1ccc(F)cc1)C(N)=C(C#N)C2c1cccs1 (stereo not given),i,0.98
N#Cc1cc2c(nc1SCc1cccnc1)CCC2,i,1.2
CCSc1nnc(NC(=O)c2nn(C(C)C)c(=O)c3ccccc23)s1,i,1
Cc1ccc(OCc2cc(C(=O)NCC(C)c3ccccc3)no2)cc1C (stereo not given),i,1
COc1ccc(-c2cn(-c3ccc(Br)cc3)c3[n+]2CCS3)cc1,i,-1.1
Clc1ccc(-c2nnc(SCc3nc(-c4ccccc4)no3)o2)cc1,i,-1.5
Cc1cc(Cl)ccc1NC(=S)N1CCN(Cc2ccc3c(c2)OCO3)CC1,i,0.04
CC(=O)c1c(C)[nH]c(C(=O)NNC(=O)COc2ccc(Cl)cc2C)c1C,-5.8*,-0.64*
O=c1[nH][nH]c(-c2ccccc2)c1C=Nc1ccc(C(F)(F)F)cc1,i,-1.4
CSc1ccc(Cl)c(C(=O)NNC(=O)c2csc(N3CCOCC3)n2)c1,i,-0.24
Cc1ccc(NS(=O)(=O)c2cccc(C(=O)OCC(=O)NCc3ccco3)c2)cc1,i,-2.4
COc1ccccc1NC(=O)CSc1nnc(CCC(=O)Nc2ccccc2F)n1C,i,-0.58
Cc1cc(C)n(CCC(=O)N2CCCC(N3CCN(c4cccc(Cl)c4)CC3)C2)n1 (stereo not given),i,-0.21
COCCOC(=O)c1c(C)oc2ccc(NS(=O)(=O)c3cccs3)cc12,i,-2.8
COc1ccc(-n2c(SCC(=O)Nc3ccc4c(c3)OCO4)nnc2C(C)N2CCCCC2)cc1 (stereo not given),i,1.8
Cc1c(C=O)c2ccccc2n1CC(=O)O,i,0.11
C=CCOC(=O)/C(=C\C=C\c1ccccc1)NC(=O)c1ccccc1,i,-1.4
O=C(NC1CCSc2ccccc21)c1ccc(Cl)c(S(=O)(=O)N2CCOCC2)c1 (stereo not given),i,-1.1
S=C(Nc1cccc(Br)c1)c1ccccc1,i,0.23
CCc1ccc(NC(=S)/N=C(\N)Nc2nc(C)c3cc(CC)ccc3n2)cc1,i,1.1
Cc1cccc(NC(=O)c2cc(-c3cc(Cl)ccc3O)n[nH]2)c1,i,-0.3
COc1ccc2sc(N(CCCN(C)C)C(=O)c3ccc(S(=O)(=O)N4CCCC4)cc3)nc2c1,i,0.01
O=C(NNC(=O)c1c(F)cccc1F)c1sccc1-n1cccc1,i,0.32
Cn1c(SCC(=O)c2ccccc2)nc2cccnc21,i,-1.4
O=S(=O)(Nc1ccc(Cl)cc1)c1ccc(N2CCOCC2)c(NC(=S)NC2CC2)c1,i,0.04
O=C(COC(=O)c1ccc(NS(=O)(=O)c2ccc(Br)s2)cc1)NC1CCCC1,i,0.47
CCOc1ccc(C(C)(N)C(=O)O)cc1 (stereo not given),i,-0.57
COCCCN(C(=S)NC(=O)C(C)(C)C)c1c(N)n(Cc2ccccc2)c(=O)[nH]c1=O,i,2.5
Cc1ccc(C(=O)/C=C/c2ccc3ncccc3c2)cc1,i,-2.2
Cc1c(C(=O)O)sc2nc(SCC(=O)Nc3ccc(S(=O)(=O)NCCCC(=O)O)cc3)[nH]c(=O)c12,i,-0.51
O=C(COc1ccccc1)Nc1ccncc1,i,0.24
CC(C)OCCOc1ccc2oc(-c3ccco3)cc(=O)c2c1,i,-0.41
C=CCN1C(=O)C(O)(CC(=O)c2ccccn2)c2ccccc21 (stereo not given),i,1.8
O=C(Nc1ccc(-c2n[nH]c(=S)o2)cc1)c1ccccc1,i,-1.1
CC(=O)C1=C(NC(=O)c2ccc(C(F)(F)F)cc2)C[C@@H]2[C@H]1C2(C)C,i,0.36
CC(C)(C)C(Cn1ccnc1)NC(=O)c1ccc2nc(C3CC3)oc2c1 (stereo not given),i,5.1
CC(C)c1nnc(NC(=O)CCC(=O)NC2CCCc3ccccc32)s1 (stereo not given),i,-0.02
Cc1ccc2c(c1)N(CC(=O)NCc1cccnc1)C(=O)CO2,i,0.53
CCCCNCCOCCSc1ccc(Cl)cc1,i,0.25
Cc1cc(NC(=O)c2n[nH]c(=O)c3ccccc23)ccc1Br,i,-0.95
CC(NC(=O)COc1ccc([N+](=O)[O-])cc1)c1ccccc1 (stereo not given),i,0.26
CC(C)c1ccc(N2C(=O)CC(Sc3ncccn3)C2=O)cc1 (stereo not given),i,-0.02
Cc1nc2ccc(C(=O)N3CCN(Cc4ccccc4)CC3)cc2[nH]1,i,1.7
O=C(NNC(=O)C1CC=CCC1C(=O)O)c1ccc(Cl)cc1 (stereo not given),i,3
CC(C)CCN1CCN(C2CCN(c3ccc4c(c3)OCO4)CC2)CC1CCO (stereo not given),i,0.77
Cc1ccccc1Cn1cnc2c([N+](=O)[O-])c(C)c(C)cc21,i,0.87
Cn1c(=O)cc(SCC(=O)NCCC2=CCCCC2)c2ccc(Cl)cc21,i,3.3
CN1CCc2c(sc(NC(=O)C3CCCCC3)c2C(N)=O)C1,i,1.7

# Molecules listed so far that contain two or more sulfur atoms, in the order listed:
SMILES,KCNQ2 inh,KCNQ2 inh baseline
C=CCN=C1SCC(=O)N1S(=O)(=O)c1ccccc1,i,-1
CCOC(=O)C1CN(S(=O)(=O)c2ccc(C)cc2)CCN1S(=O)(=O)c1ccc(C)cc1 (stereo not given),i,-0.79
S=C(NC1CCCCC1)N1CCOCCOCCN(C(=S)NC2CCCCC2)CCOCC1,i,-2.3
CCOC(=O)c1cnc(Nc2nc3ccccc3o2)nc1CSC(=S)N1CCCCC1,i,-0.13
CN(CCO)S(=O)(=O)c1ccc2c(c1)C(=O)c1cc(S(=O)(=O)N(C)CCO)ccc1-2,i,0.35
CCSc1nnc(NC(=O)c2nn(C(C)C)c(=O)c3ccccc23)s1,i,1
CSc1ccc(Cl)c(C(=O)NNC(=O)c2csc(N3CCOCC3)n2)c1,i,-0.24
COCCOC(=O)c1c(C)oc2ccc(NS(=O)(=O)c3cccs3)cc12,i,-2.8
O=C(NC1CCSc2ccccc21)c1ccc(Cl)c(S(=O)(=O)N2CCOCC2)c1 (stereo not given),i,-1.1
COc1ccc2sc(N(CCCN(C)C)C(=O)c3ccc(S(=O)(=O)N4CCCC4)cc3)nc2c1,i,0.01
O=S(=O)(Nc1ccc(Cl)cc1)c1ccc(N2CCOCC2)c(NC(=S)NC2CC2)c1,i,0.04
O=C(COC(=O)c1ccc(NS(=O)(=O)c2ccc(Br)s2)cc1)NC1CCCC1,i,0.47
Cc1c(C(=O)O)sc2nc(SCC(=O)Nc3ccc(S(=O)(=O)NCCCC(=O)O)cc3)[nH]c(=O)c12,i,-0.51

# Screening results from PubChem BioAssay.
